# VACV mCherry inh – vaccinia inhibition (mCherry reporter); Vaccinia virus mCherry reporter infection, fluorescence; about a quarter of the inactives have no number; Potency, µM (series often up to 36.5 µM), without a hit: top-dose activity change, negative = inhibition, most hits filed as inhibitors; AID 720579; 310,000 compounds, 0.63% hits; active = well fitted inhibition curve with a large enough effect; inconclusive = small, poorly fitted or top-dose-only effect; inactive = no such curve, though single readings can be large or run the other way; tested in A549 cells; further: nearly all actives have a fitted effect of over 35% in size; inactives centre near -10
# VACV Venus inh – vaccinia inhibition (Venus reporter) | Vaccinia virus Venus reporter expression, fluorescence | Potency, µM (titrated, usually from 36.5 µM), without a hit: top-dose activity change, negative = inhibition, hits mostly inhibitors | 330,000 compounds, 0.46% hits | AID 720580; active means well fitted inhibition curve with a large enough effect; inconclusive means small, poorly fitted or top-dose-only effect; inactive means no such curve, though single readings can be large or run the other way; tested in A549 cells; further: nearly all actives have a fitted effect of over 30% in size; inactives centre near -10
# Numbers without * were called inactive; i = inactive; ? = inconclusive; . = not tested or not shown; [ ] = dose if it differs, or a comment. On the % scale 0 is the no-effect control and ±100 the full control effect; potency means the concentration at half of the fitted maximal effect.
# The first 16 compounds (preview)
(1) c1ccc(CCSc2nccn2-c2ccccc2)cc1
(2) Cc1nc(-c2cc(C#N)c(=O)[nH]c2C)cs1
(3) COc1ccc(N(C(=O)c2ccccc2C)S(=O)(=O)c2ccc(Cl)cc2)cc1
(4) C=C(C)Cn1c(-c2cccc([N+](=O)[O-])c2)n[nH]c1=S
(5) O=C(Nc1cccnc1)c1ccc(Cl)c([N+](=O)[O-])c1
(6) Cc1ccc(C(=O)c2c(N)c(C(=O)Nc3cccc(C(F)(F)F)c3)c3ccccn23)cc1
(7) COc1ccc(Cl)c(NC(=O)NCCN2CCN(c3ccccc3)CC2)c1
(8) CCSC(=Nc1ccccc1)C1=C(O)COC1=O

screen / no.	1	2	3	4	5	6	7	8
VACV mCherry inh	.	i	-26%	-10%	8%	-25%	.	-7%
VACV Venus inh	-21%	-15%	-12%	-2%	1%	-15%	-29%	-4%

(9) Cc1ccc(Cl)cc1NC(=O)CN1CCOCC1
(10) COc1ccccc1/C=C1\SC(=S)N(CCC(=O)NCCc2ccc(O)cc2)C1=O
(11) O=C(CN1C(=O)CSC1=O)Nc1ccccc1F
(12) Cn1cnc(S(=O)(=O)N2CCN(c3cccc(C(F)(F)F)c3)CC2)c1
(13) Cc1ccccc1C(=O)Nc1ccc(C(=O)N/N=C/c2ccc(O)c(Br)c2)cc1
(14) CC(C)(C)c1cc(CN2CCN(CCC#N)CC2)cc(C(C)(C)C)c1O
(15) CCN(CC)c1ncnc2ccc(Br)cc12
(16) CC1CCCN(C(C(=O)Nc2ccc3c(c2)OCCO3)c2ccccc2)C1 (stereo not given)

screen / no.	9	10	11	12	13	14	15	16
VACV mCherry inh	i	?	-8%	-4%	-11%	.	i	-10%
VACV Venus inh	-10%	?	-3%	-11%	-7%	-13%	-10%	-4%

# Main list, repeating the preview:
(1) c1ccc(CCSc2nccn2-c2ccccc2)cc1
(2) Cc1nc(-c2cc(C#N)c(=O)[nH]c2C)cs1
(3) COc1ccc(N(C(=O)c2ccccc2C)S(=O)(=O)c2ccc(Cl)cc2)cc1
(4) C=C(C)Cn1c(-c2cccc([N+](=O)[O-])c2)n[nH]c1=S
(5) O=C(Nc1cccnc1)c1ccc(Cl)c([N+](=O)[O-])c1
(6) Cc1ccc(C(=O)c2c(N)c(C(=O)Nc3cccc(C(F)(F)F)c3)c3ccccn23)cc1

screen / no.	1	2	3	4	5	6
VACV mCherry inh	.	i	-26%	-10%	8%	-25%
VACV Venus inh	-21%	-15%	-12%	-2%	1%	-15%

(7) COc1ccc(Cl)c(NC(=O)NCCN2CCN(c3ccccc3)CC2)c1
(8) CCSC(=Nc1ccccc1)C1=C(O)COC1=O
(9) Cc1ccc(Cl)cc1NC(=O)CN1CCOCC1
(10) COc1ccccc1/C=C1\SC(=S)N(CCC(=O)NCCc2ccc(O)cc2)C1=O
(11) O=C(CN1C(=O)CSC1=O)Nc1ccccc1F
(12) Cn1cnc(S(=O)(=O)N2CCN(c3cccc(C(F)(F)F)c3)CC2)c1

screen / no.	7	8	9	10	11	12
VACV mCherry inh	.	-7%	i	?	-8%	-4%
VACV Venus inh	-29%	-4%	-10%	?	-3%	-11%

(13) Cc1ccccc1C(=O)Nc1ccc(C(=O)N/N=C/c2ccc(O)c(Br)c2)cc1
(14) CC(C)(C)c1cc(CN2CCN(CCC#N)CC2)cc(C(C)(C)C)c1O
(15) CCN(CC)c1ncnc2ccc(Br)cc12
(16) CC1CCCN(C(C(=O)Nc2ccc3c(c2)OCCO3)c2ccccc2)C1 (stereo not given)
(17) O=C(COc1ccccc1-c1ccccc1)NNC(=O)NC1CCCCC1
(18) COc1ccccc1N1CCN(C(=O)C(Sc2ccccc2)c2ccccc2)CC1 (stereo not given)

screen / no.	13	14	15	16	17	18
VACV mCherry inh	-11%	.	i	-10%	-4%	.
VACV Venus inh	-7%	-13%	-10%	-4%	-2%	?

(19) CNc1nc(N)c([N+](=O)[O-])c(NCCO)n1
(20) CCOC(=O)c1cnc(NCc2ccccc2OC)c2ccccc12
(21) COc1ccc(/C(C)=N/NC(=O)c2sccc2-n2cccc2)cc1
(22) COc1ccc(C(C)(C)C)cc1NC(=O)c1ccc2c(c1)SC1=NS(=O)(=O)CCN12
(23) CCOC(=O)C1(Cc2ccccc2)CCN(Cc2ccc3cc(NC(C)=O)ccc3n2)CC1
(24) CCOC(=O)Cc1csc(NC(=S)NC(=O)c2ccc(F)cc2)n1

screen / no.	19	20	21	22	23	24
VACV mCherry inh	-11%	-11%[7.34 µM]	i	-7%	i	-5%
VACV Venus inh	-6%	-2%[7.34 µM]	-20%	1%	-3%	-4%

(25) C[C@@H]1CN([C@H](C)CO)C(=O)c2c(c3ccccc3n2C)-c2ccccc2CO[C@@H]1CN(C)Cc1ccc(O)cc1
(26) CCS(=O)(=O)NC(C)C(c1cccs1)N1CCN(c2ccc(OC)cc2)CC1 (stereo not given)
(27) CCN(CC)CCN(C(=O)Cn1nnc(-c2ccc(OC)c(OC)c2)n1)C(C(=O)NC1CCCC1)c1ccc(F)cc1 (stereo not given)
(28) O=C(CCC1CCCN(C2C3CC4CC(C3)CC2C4)C1)NCc1ccc(F)c(F)c1 (stereo not given)
(29) CN1C(=O)NC(c2ccccc2[N+](=O)[O-])C2=C1CC(C)(C)CC2=O (stereo not given)
(30) CC(C)C(=O)NCCCc1ccccc1

screen / no.	25	26	27	28	29	30
VACV mCherry inh	?	i	-7%	-22%	i	.
VACV Venus inh	?	-14%	6%	-10%	5%	-12%

(31) CC(=O)c1ccc(NC(=O)c2ccc(-c3nc(CSc4ccc(C)cc4)c(C)o3)cc2)cc1
(32) CCC(C)Sc1c(C(C)C)cnc2c1c(=O)n(C)c(=O)n2C (stereo not given)
(33) Cc1ccc2[nH]c(=O)c(-c3nc4c(C)cccn4c3NCc3ccco3)cc2c1
(34) CCCn1c(SCC(=O)C(C)(C)C)nc2ccccc21
(35) COc1ccccc1-c1nc(C#N)c(NCCCn2ccnc2)o1
(36) CC(=O)NC(CC(=O)Nc1nc(-c2ccccc2)c(C(C)=O)s1)c1ccccc1 (stereo not given)

screen / no.	31	32	33	34	35	36
VACV mCherry inh	-16%	?	-13%	i	-10%	?
VACV Venus inh	-7%	-28%	-18%	-3%	-9%	-10%

(37) Cn1cnc(S(=O)(=O)N2CCCCC2c2cc(C(=O)NCc3ccc(Cl)c(Cl)c3)no2)c1 (stereo not given)
(38) Cc1nnc2n(-c3ccccc3)c(=O)c3c4c(sc3n12)COC(C(C)C)C4 (stereo not given)
(39) CCOc1ccccc1NC(=O)CN1CCC(NC(=O)Nc2ccccc2)CC1
(40) COc1coc(C(O)CN)cc1=O (stereo not given)
(41) O=C(CN1C(=O)COc2ccccc21)NCCCN1CCc2ccccc2C1
(42) CC1CCCN(c2cc(N(C)CCO)c([N+](=O)[O-])c3nonc23)C1 (stereo not given)

screen / no.	37	38	39	40	41	42
VACV mCherry inh	-9%	-3%	-7%	-20%	-10%	8%
VACV Venus inh	-5%	-15%	-19%	-1%	-1%	-14%

(43) CCN1CCN(C(c2ccccc2)c2c(O)cc(C)n(Cc3ccco3)c2=O)CC1 (stereo not given)
(44) Cn1c(=O)c2c(ncn2Cc2cc(-c3ccccc3)no2)n(C)c1=O
(45) O=C(C1CCCN1S(=O)(=O)c1ccc(Cl)cc1)N1CCN(c2ccccc2)CC1 (stereo not given)
(46) Cc1ccc(OCC(=O)c2cc(C)n(CC(F)(F)F)c2C)c([N+](=O)[O-])n1
(47) CCc1cccc2c(C(=O)Cn3nnc(-c4ccc(OC)c(OC)c4)n3)c[nH]c12
(48) CC(C)(C)OC(=O)C[C@H]1C/C=C\C[C@@H](CC(=O)N(CCO)Cc2ccccc2)C(=O)N[C@@H](c2ccccc2)COC1=O

screen / no.	43	44	45	46	47	48
VACV mCherry inh	-14%	.	-29%	i	.	-2%
VACV Venus inh	-3%	-19%	-9%	-18%	?	-21%

(49) COc1cccc(CNC(=O)Cn2cccc2)c1
(50) Cc1cc(C)nc(N2CCC(C(=O)O)CC2)n1
(51) CCOC(=O)N1CCC(NC(=S)Nc2ccc3nc(N4CCN(C)CC4)cc(C)c3c2)CC1
(52) CCC/C(=C1/C(=O)CC(C)(C)C(C(=O)OC)C1=O)N1CCCC1 (stereo not given)
(53) COc1ccc(N(CC(=O)Nc2cc(C(=O)O)ccc2C)S(=O)(=O)c2c(C)noc2C)cc1
(54) CC(C)N(Cc1cc2ccccc2[nH]c1=O)C(=O)c1cccnc1

screen / no.	49	50	51	52	53	54
VACV mCherry inh	-9%	-14%	?	.	-18%	i
VACV Venus inh	-11%	-7%	-19%	-11%	-10%	-11%

(55) COc1ccc(NC(=O)Cn2nc(C)c3nn(-c4ccc(Cl)cc4)c(C)c3c2=O)cc1
(56) O=C(Nc1c(C(=O)NCc2ccco2)cnn1-c1ccccc1)c1ccc(F)cc1
(57) NS(=O)(=O)c1ccc(NC(=O)Nc2ccc3c(c2)OCO3)cc1
(58) CCC1(c2ccccc2)NC(=O)N(CC(=O)N2CCN(S(=O)(=O)c3ccccc3)CC2)C1=O (stereo not given)
(59) Cc1cc(C)c(S(=O)(=O)NCc2ccncc2)c(C)c1
(60) Cc1cc(NC(=O)CS(=O)CC(=O)Nc2c(C)cccc2C)ccc1-n1cnnn1 (stereo not given)

screen / no.	55	56	57	58	59	60
VACV mCherry inh	-18%	-14%[1.46 µM]	-9%	-5%	?	-25%
VACV Venus inh	-15%	-5%	-14%	-25%	?	-6%

(61) O=C(NCc1ccccn1)C1(C(F)(F)F)C/C(=C\CCO)CCCO1 (stereo not given)
(62) COc1cc([C@H]2c3c(cc(OC)c(O)c3OC)C[C@@H](CO)[C@@H]2CO[C@@H]2O[C@H](CO)[C@@H](O)[C@H](O)[C@H]2O)cc(OC)c1O
(63) Cc1ccc(N=C2NC(=O)C(CC(=O)NCc3ccccc3)S2)cc1C (stereo not given)
(64) NC(=S)NNc1cccc(Cl)c1

screen / no.	61	62	63	64
VACV mCherry inh	-1%	5%	-13%	i
VACV Venus inh	-14%	-10%	-7%	-21%
